Screens from PubChem BioAssay.
Mtb bLac sens: beta-lactam sensitization of Mtb H37Rv; inhibition, % at 25 µM; AID 434955; M. tuberculosis H37Rv growth with meropenem, percent inhibition; hits of this screen are not shown here; hit rate 0.27% among 330,000;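 active means about 74% or more and at least 40 points above the plate without the antibiotic, then above 30% in a dose series; inconclusive means first-round hits that could not be retested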;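 further: growth measured after seven days incubation then overnight dye step; 0% = bacteria only wells and 100% = bacteria with antibiotic; twin plates without the antibiotic show which effects depend on it; some results filed as inactive read as strong as hits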
YopH inh: inhibitors of Yersinia enterocolitica YopH tyrosine phosphatase; fluorescence Ex485/Em525; inhibition, %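 (about 10 µM by stock and volumes)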; hit rate 0.16% among 140,000;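 active means inhibition of 50% or more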;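 further: controls were vehicle for no effect and minimum signal wells for full effect; inactives centre near -20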
RecA splice inh: inhibitors of M. tuberculosis RecA intein splicing; inhibition, %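 (about 9 µM by stock and volumes)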; cell-free RecA intein splicing, fluorescence; hit rate 0.75% among 290,000; in the data active means inhibition above about 30%; inconclusive means no clear call, values can overlap the other calls;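 further: 0% = vehicle wells and 100% = reference inhibitor control wells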
Target sequence (P9WHJ3 whole entry, looked up, canonical isoform): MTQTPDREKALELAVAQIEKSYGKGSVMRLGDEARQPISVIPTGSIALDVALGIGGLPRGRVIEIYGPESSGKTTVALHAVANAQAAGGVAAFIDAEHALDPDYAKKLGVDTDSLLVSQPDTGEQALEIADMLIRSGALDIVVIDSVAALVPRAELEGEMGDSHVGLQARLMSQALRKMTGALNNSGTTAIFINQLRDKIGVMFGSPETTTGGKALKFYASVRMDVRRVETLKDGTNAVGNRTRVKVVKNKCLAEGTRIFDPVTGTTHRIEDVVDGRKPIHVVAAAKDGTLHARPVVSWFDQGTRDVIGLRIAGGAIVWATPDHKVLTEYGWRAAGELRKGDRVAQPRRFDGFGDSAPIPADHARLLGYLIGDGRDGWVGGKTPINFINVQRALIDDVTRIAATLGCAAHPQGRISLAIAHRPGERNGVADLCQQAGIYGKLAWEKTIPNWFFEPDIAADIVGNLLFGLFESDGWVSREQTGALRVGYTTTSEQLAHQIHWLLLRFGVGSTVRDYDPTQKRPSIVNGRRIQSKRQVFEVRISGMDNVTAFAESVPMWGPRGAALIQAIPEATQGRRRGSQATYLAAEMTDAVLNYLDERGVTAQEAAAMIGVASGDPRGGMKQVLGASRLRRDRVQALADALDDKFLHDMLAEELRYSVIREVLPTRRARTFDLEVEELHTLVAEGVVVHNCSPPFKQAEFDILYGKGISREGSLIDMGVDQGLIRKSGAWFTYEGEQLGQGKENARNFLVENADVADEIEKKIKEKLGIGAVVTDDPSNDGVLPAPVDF
Mtb growth: M. tuberculosis H37Rv growth inhibitors, H37Rv strain (AID 1626); M. tuberculosis H37Rv growth inhibition; higher % means a stronger effect; inhibition, % at 10 µM, or IC50 in µM where a hit was titrated; hit rate 0.95% among 220,000;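 active means confirmed in a dose series; inconclusive means inhibition above 80% but not taken into the dose series; inactive means below 80% or under 30% at every dose of the series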;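 further: bacteria incubated seven days before Alamar blue readout; 0% = bacteria only wells and 100% = bacteria with antibiotic wells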
Arbovirus anti: blocks arbovirus infection; hit rate 0.37% among 200,000; inhibition, % at 10 µM; arbovirus infection cell-based antiviral screen; AID 1251;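 active means inhibition from about 30%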;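 further: bluetongue infection of BSR cells; cell survival read as ATP light after 72 h; 0% = infected wells without compound and 100% = uninfected wells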
Arbovirus anti repeat: further read-out of Arbovirus anti, marked with its call; inhibition, %; measured here: 10K subset replicate screen; many hits read low in the repeat;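 first of two repeat runs on a subset; 0% = infected and 100% = uninfected wells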
* hit, by the source's call; ? = inconclusive; · = not tested or not shown.

SMILES | Mtb bLac sens | YopH inh | RecA splice inh | Mtb growth | Arbovirus anti | others
Cc1ccc(C)c(S(=O)(=O)Nc2ccc(S(=O)(=O)Nc3onc(C)c3C)cc2)c1 | · | -31 | 1.8 | -3% | 9
O=S(=O)(c1ccccc1)N1CCN=C1SCc1ccccc1Cl | 0 | · | 10 | -1% | 6
Cc1ccccc1OCCn1ccnc1 | 2 | · | 1.8 | · | ·
COc1ccc(NC(=O)CN(C)C(=O)c2ccc(N3CCCCCC3)c([N+](=O)[O-])c2)cc1 | 3 | · | 5.6 | · | ·
CC(NC(=O)/C(C#N)=C/c1ccco1)c1ccccc1 (configuration not stated) | -6 | · | 2.3 | 2% | ·
O=C1CCCN1CC(CN1CCOCC1)Sc1nnnn1-c1ccccc1 (configuration not stated) | -11 | -58 | 0.6 | 0% | -2 | Arbovirus anti repeat=3
CCCCN(CC)C(=O)Cc1c(C(=O)O)[nH]c2ccc(Cl)cc12 | 1 | -39 | -2.0 | 2% | -5
CCn1cc(C(=O)NCCN(C)C)c(=O)c2cc(F)c(N3CCN(C)CC3)cc21 | 2 | · | 0.3 | · | ·
Cc1cccn2c(=O)c(/C=C(\C#N)C(N)=O)c(N3CCN(Cc4ccc5c(c4)OCO5)CC3)nc12 | 9 | -20 | -6.8 | 1% | -16
COc1cc(CC(=O)OCC(=O)N2C(C)CCCC2C)cc(OC)c1OC (configuration not stated) | 0 | · | -0.3 | · | ·
Cc1c(NC(=O)CSCc2c(F)cccc2Cl)c(=O)n(-c2ccccc2)n1C | 3 | · | -0.2 | 1% | -2
O=C(Cn1cc(S(=O)(=O)Cc2ccccc2)c2ccccc21)Nc1ccccc1 | 1 | 3 | 6.3 | 1% | -1
O=C(Nc1cccnc1)c1cc(-c2cccnc2)nc2ccc(Br)cc12 | 27 | -39 | -0.1 | 1% | 7
CCN1CCCC1CNCc1cccc(OC)c1OCc1ccc(F)cc1 (configuration not stated) | -1 | -17 | 1.8 | 6% | -1
COc1ccc(CCNC(=O)c2ccc(OCC(=O)N3CCOCC3)c(OC)c2)cc1OC | -11 | · | -0.6 | · | ·
O=S(=O)(c1ccc(NC(=S)NN=C2CCCCC2)cc1)N1CCOCC1 | -9 | · | -1.7 | 3% | -3
O=C(Nc1ccc(N2CCCCC2)cc1)c1ccccc1 | 1 | -44 | -0.7 | 3% | -7
COc1ccc(N2CCN(S(=O)(=O)CCNC(=O)COc3ccccc3C)CC2)cc1 | -2 | · | 3.6 | · | ·
Cc1cc(C)c(C#N)c(SC(C(=O)NC(C)(C)C)c2ccccc2)n1 (configuration not stated) | -2 | · | 0.8 | -13% | ·
CSc1ccc(/C=C/C(=O)c2ccc(NC(=O)C(C)C)cc2)cc1 | 100 | -2 | 4.5 | 75% | 0
CC[C@@H](C(=O)[C@@H](C)[C@@H](O)[C@H](C)CCc1ccc(C)c(O)c1C(=O)O)[C@H]1O[C@](CC)([C@H]2CC[C@](O)(CC)[C@H](C)O2)C[C@@H]1C | 56 | · | 18 | · | ·
COc1cc(NC(=O)c2cc3ccccc3o2)c(OC)cc1Cl | -12 | -35 | -0.5 | 2% | -6 | Arbovirus anti repeat=1
CCn1nc(NC(=O)Cc2ccc(OC)cc2)c2cc3cccc(C)c3nc21 | 33 | · | -34 | -10% | ·
CSc1cccc(NC(=O)OC2CCCCCCCCCCC2)c1 | 3 | · | 0.2 | 0% | ·
CCCn1c(C2CCCN2c2nc(C)cs2)nc2cc(Cl)c(Cl)cc21 (configuration not stated) | -10 | · | 17 | · | ·
C#CCNC(=O)C1=C[C@@H](C(C)(C)C)C[C@@H](OCc2ccc(CO)cc2)O1 | 11 | · | -1.8 | -1% | 12
COc1ccc(NC(=O)CN2CCN(CC(=O)Nc3ccc4c(c3)OCO4)CC2)cc1 | 12 | -41 | · | -4% | 2
Cc1cc2[nH]c(=O)c(=O)[nH]c2cc1S(=O)(=O)Nc1ccccc1F | -2 | · | 0.6 | · | ·
O=C(CCN1CCCC1=O)NC1CCCc2c1cnn2-c1ccccc1F (configuration not stated) | 0 | · | 1.7 | · | ·
O=C(Cn1cc([N+](=O)[O-])cn1)N1CCN(c2ccccc2)CC1 | -2 | · | 0.4 | · | ·
Cc1ccc(C(=O)NC(=S)Nc2ccccc2C)cc1 | -2 | · | · | 5% | 2
COc1ccc(NC(=O)Nc2ccc(OC)cc2)cc1 | -4 | -16 | -1.7 | · | -1
Cc1nn(C)c(C)c1NC(=O)CCl | 5 | · | -2.1 | -7% | 4
COc1ccc(CC(C)NS(=O)(=O)c2ccc3c(c2)CCN3S(C)(=O)=O)cc1OC (configuration not stated) | 9 | · | -0.5 | · | ·
COc1ccc(/C=C/C(=O)c2ccc(OC)cc2O)cc1 | -7 | -10 | 3.5 | -4% | -2
COc1ccccc1C(=O)N/N=C/C(C)=C/c1ccccc1 | -2 | · | 2.5 | · | ·
Cc1ccc2ccc(C(Nc3cccc(C(F)(F)F)c3)c3cccnc3)c(O)c2n1 (configuration not stated) | 1 | · | -4.2 | 6% | 5
CCOc1cccc(C(=O)N(Cc2ccc(F)cc2)C2CCS(=O)(=O)C2)c1 (configuration not stated) | -6 | 15 | -0.5 | -11% | -2
CN(CC(=O)Nc1cccc(F)c1)CC(=O)Nc1cccc(S(=O)(=O)N2CCCCCC2)c1 | -7 | · | 4.7 | -12% | ·
Cc1cccc(Cn2c(Cc3ccccc3)nc3ccccc32)c1 | 3 | -6 | 13 | 7% | -11
CN(c1ccccc1C(=O)Nc1ccc(S(=O)(=O)N2CCOCC2)cc1)S(=O)(=O)c1ccccc1 | 1 | -25 | 5.3 | -9% | 0
CCOC(=O)c1cc(CC)sc1NC(=O)CN1C(=O)C(=O)N(CC(C)C)C1=O | -5 | · | 0.1 | · | ·
COc1ccccc1N(C1=NCCCS1)S(=O)(=O)c1ccc(C(C)(C)C)cc1 | 4 | · | 13 | 9% | 1
N#Cc1ccccc1NC(=O)CN1CCN(c2ccccn2)CC1 | 0 | · | -1.4 | · | ·
Cc1csc(NC(=O)CSc2nnc(C)c(=O)n2N)n1 | -6 | · | -0.4 | 3% | -5
Cc1ccc(CC2CC(=O)N(c3ccc(C)cc3)C2=O)cc1 (configuration not stated) | -2 | · | 0.2 | 6% | 5
CCN(C(=O)CSc1nnc(COc2ccccc2F)n1N)C1CCS(=O)(=O)C1 (configuration not stated) | -7 | · | 3.0 | · | ·
COc1cccc(/C=C2\C=C(c3ccc(C)cc3)OC2=O)c1OC(C)=O | 5 | · | -12 | · | ·
CC(C)(Oc1ccc(Br)cc1)C(=O)N1CCc2ccccc21 | 0 | -5 | -2.8 | -6% | -7
CS(=O)(=O)N(C(=O)NC(=O)NC1CCS(=O)(=O)C1)C1CCCCC1 (configuration not stated) | 1 | -16 | -0.7 | -7% | 0
Continued:
SMILES | Mtb bLac sens | YopH inh | RecA splice inh | Mtb growth | Arbovirus anti | others
CC(=O)c1ccc(N(C(=O)CNC(=O)c2ccco2)C(C(=O)NC2CCCC2)c2ccco2)cc1 (configuration not stated) | 6 | · | 4.4 | · | ·
Cc1nc(NC(=O)c2cc(-n3cnnc3)ccc2Cl)ccc1Br | -7 | -33 | -0.2 | 1% | 2
c1cc2c(cc1Nc1nc(-c3ccc4c(c3)OCO4)cs1)OCCO2 | -4 | 6 | 0.6 | -8% | -2
COc1ccc(S(=O)(=O)N2CCN(C(=O)[C@@H]3CCC(=O)N3C3OC(=O)c4ccccc43)CC2)cc1 (some centres not stated) | -4 | -42 | -5.0 | -3% | 5
CC(C)N1CCC(NC(=O)Nc2ccccc2)CC1 | -9 | · | 0.4 | -4% | 3
CCn1cc(C(=O)NCCC(=O)OC)c(=O)c2cc3c(cc21)OCO3 | -2 | · | -0.9 | · | ·
CN1CCCN(C(=O)c2cc3c(s2)CCCC3)CC1 | -12 | · | 2.2 | · | ·
Cc1nnc(N(C)C(=O)c2ccncc2)s1 | -3 | · | -3.7 | 1% | 0
Cc1[nH]c2ccccc2c1C(=O)CNc1nccs1 | -6 | -103 | -0.6 | -3% | 8
COc1ccc(CN2C(=O)c3ccccc3C2=O)cc1C(=O)Nc1ccc(C)cc1C | -3 | -24 | -1.3 | 1% | -5

Taken from the entries so far (four entries):
SMILES | Mtb bLac sens | YopH inh | RecA splice inh | Mtb growth | Arbovirus anti | others
Cc1ccc(C)c(S(=O)(=O)Nc2ccc(S(=O)(=O)Nc3onc(C)c3C)cc2)c1 | · | -31 | 1.8 | -3% | 9
O=S(=O)(c1ccccc1)N1CCN=C1SCc1ccccc1Cl | 0 | · | 10 | -1% | 6
Cc1ccccc1OCCn1ccnc1 | 2 | · | 1.8 | · | ·
COc1ccc(NC(=O)CN(C)C(=O)c2ccc(N3CCCCCC3)c([N+](=O)[O-])c2)cc1 | 3 | · | 5.6 | · | ·

Next entries
SMILES | Mtb bLac sens | YopH inh | RecA splice inh | Mtb growth | Arbovirus anti | others
COc1ccccc1OCc1nnc(SCC(=O)NCc2ccco2)n1Cc1ccco1 | 10 | -3 | 4.9 | 6% | 5
COc1ccc(CC(NC(C)=O)C(=O)NC2CCN(c3c4c(nc5ncnn35)CCC4)CC2)cc1 (configuration not stated) | 1 | -23 | 0.6 | -3% | -3
CCN(CC)C(=O)Cn1cc(S(=O)(=O)CC(=O)Nc2ccc(C(N)=O)cc2)c2ccccc21 | -1 | · | -1.3 | · | ·
O=C(NC(Cc1c[nH]c2ccccc12)C(=O)N1CCOCC1)c1cccs1 (configuration not stated) | -5 | · | · | -4% | 4
N#Cc1ccc(-c2ccc(F)cc2)nc1Sc1ccc(F)cc1 | -16 | -45 | -3.7 | -1% | -3
S=C(NC1CCCCC1)N1CCN(Cc2ccccc2)CC1 | -15 | -22 | 0.7 | -4% | -6
COC(=O)COc1cccc2c(=O)n(CC(=O)NCCc3ccccc3)ccc12 | 2 | -27 | · | 24% | 1
CCCC(=O)Nc1nc(C)c(-c2csc(Nc3ccccc3C)n2)s1 | 44 | -18 | 1.3 | -5% | 1
O=C(Nc1ccc(N2CCCC2)cc1)c1ccc(Br)o1 | 95 | 9 | -8.0 | 12% | -3 | Arbovirus anti repeat=-9
COC(=O)c1ccc(OCC(O)CN(CCO)CC(O)Cn2ccc3ccccc32)cc1 (configuration not stated) | 0 | 8 | 0.7 | 4% | 4

Molecules above containing a cyano group:
SMILES | Mtb bLac sens | YopH inh | RecA splice inh | Mtb growth | Arbovirus anti | others
CC(NC(=O)/C(C#N)=C/c1ccco1)c1ccccc1 (configuration not stated) | -6 | · | 2.3 | 2% | ·
Cc1cccn2c(=O)c(/C=C(\C#N)C(N)=O)c(N3CCN(Cc4ccc5c(c4)OCO5)CC3)nc12 | 9 | -20 | -6.8 | 1% | -16
Cc1cc(C)c(C#N)c(SC(C(=O)NC(C)(C)C)c2ccccc2)n1 (configuration not stated) | -2 | · | 0.8 | -13% | ·
N#Cc1ccccc1NC(=O)CN1CCN(c2ccccn2)CC1 | 0 | · | -1.4 | · | ·
N#Cc1ccc(-c2ccc(F)cc2)nc1Sc1ccc(F)cc1 | -16 | -45 | -3.7 | -1% | -3

Next structures follow:
SMILES | Mtb bLac sens | YopH inh | RecA splice inh | Mtb growth | Arbovirus anti | others
NC(=O)CC(NC(=O)c1ccccc1)c1ccc(N2CCC(N3CCCC3)CC2)c([N+](=O)[O-])c1 (configuration not stated) | -10 | · | -1.5 | · | ·
Cn1cc(S(=O)(=O)N2CCCC2)cc1C(=O)Nc1cccc(C(F)(F)F)c1 | 1 | · | -0.2 | · | ·
Cc1occc1-c1nnc(-c2cc([N+](=O)[O-])cc([N+](=O)[O-])c2)o1 | 99 | · | -1.7 | ? | -13
O=C(Nc1nc2ccc(Cl)cc2s1)c1ccc(N2CCCCC2)c([N+](=O)[O-])c1 | 52 | -17 | -0.7 | 6% | -6
CC(=O)C1=C(C)NC(=S)NC1c1cccc([N+](=O)[O-])c1 (configuration not stated) | -3 | · | 0.6 | 3% | 19
CC(NC(=O)OCc1ccccc1)C(=O)OCN1C(=O)c2ccccc2C1=O (configuration not stated) | -9 | 2 | 2.9 | 3% | -1
O=S(=O)(N/N=C\c1cn(-c2ccccc2)nc1-c1ccccc1)c1ccccc1 | -1 | -40 | 8.5 | 3% | 7
Cc1cc(CC(=O)O)c2oc(-c3ccoc3)cc(=O)c2c1 | -3 | · | -34 | · | ·
O=C(COc1cccc(Br)c1)N/N=C1\CCCc2ccccc21 | 8 | · | -4.9 | 6% | 8
O=C(O)CN1C(=O)SC(Nc2ccccc2C(=O)O)C1=O (configuration not stated) | -20 | -19 | -7.8 | -1% | -5
N#Cc1c(SCC(N)=O)nc2c(c1-c1ccc(O)cc1)CCCC2 | 3 | -42 | -1.2 | -8% | 1 | Arbovirus anti repeat=-2
CSC1=N/C(=C\c2cccnc2)C(=O)N1c1ccccc1 | -3 | -24 | -2.0 | 5% | -4
C=CCn1c(=S)[nH]c2scc(-c3ccco3)c2c1=O | 2 | · | · | -6% | ·
Cc1ccc(C2CC2/C(=N/O)c2ccc(F)cc2)cc1 (configuration not stated) | 0 | · | 4.8 | · | ·

Not all compounds are listed (hit frequency here may not be typical).
